Cruzain inh Det = inhibitors of Trypanosoma cruzi cruzain with detergent; P25779; purified cruzain, Z-FR-AMC fluorescence, 0.01% Triton; Potency, µM, for the others: max response, negative = inhibition, usual class: inhibitors; 200,000 tested, 0.43% active; AID 1478; active = well fitted curve in the direction sought with a large enough effect; inconclusive = small, poorly fitted or top-dose-only effect, or another doubt; inactive = no such curve, though single readings can be large; an effect the other way counts as inactive or inconclusive;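 also: plate controls were neutral wells for no effect and buffer without enzyme for full effect; nearly all actives have a fitted effect of over 40% in size; top concentration of the series not given in the record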
Target sequence (P25779 123-467 limits assumed): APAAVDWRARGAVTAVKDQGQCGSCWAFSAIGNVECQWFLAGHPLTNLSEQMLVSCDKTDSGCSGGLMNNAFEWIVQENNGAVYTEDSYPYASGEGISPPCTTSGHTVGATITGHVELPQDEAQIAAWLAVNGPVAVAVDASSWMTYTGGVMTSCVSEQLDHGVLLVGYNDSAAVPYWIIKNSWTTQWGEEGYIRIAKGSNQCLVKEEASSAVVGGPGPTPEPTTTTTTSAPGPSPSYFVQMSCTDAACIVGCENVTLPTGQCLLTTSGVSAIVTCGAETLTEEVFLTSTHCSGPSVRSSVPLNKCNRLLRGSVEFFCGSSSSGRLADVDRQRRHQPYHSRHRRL
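Z-FR-AMC hydrolysis (2 uM substrate) by cruzain (1.5 nM) monitored kinetically at ex 360/em 450 nm after 15 min room-temperature compound exposure; 0.01% Triton X-100, pH 5.5, 5 mM DTT.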
StopGo reporter = lowers the luciferase signal of an FMDV 2A StopGo reporter. 410,000 tested, 1.2% active. Potency, µM (doses to about 57.9 µM), for the others: at the top dose signal change, negative = less light. human cells with a luciferase reporter of 2A StopGo recoding; control for the full effect not named in the record; active = well fitted falling curve with a large enough effect; inconclusive = small, poorly fitted or top-dose-only effect; inactive = no such curve, though single readings can be large or run the other way; tested in HEK293T cells; also: % is scaled to controls: 0 for no effect and ±100 for the full control effect; nearly all actives have a fitted effect of over 45% in size; luciferase light after 4 h
Cruzain inh noDet = inhibitors of Trypanosoma cruzi cruzain without detergent; P25779; purified cruzain, Z-FR-AMC fluorescence, no detergent; Potency, µM, for the others: max response, negative = inhibition, usual class: inhibitors; 200,000 tested, 2.3% active; active = well fitted curve in the direction sought with a large enough effect; inconclusive = small, poorly fitted or top-dose-only effect, or another doubt; inactive = no such curve, though single readings can be large; an effect the other way counts as inactive or inconclusive;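 also: plate controls were enzyme without inhibitor for no effect and buffer without enzyme for full effect; nearly all actives have a fitted effect of over 40% in size; top concentration of the series not given in the record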
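Detergent-free condition (0.00005% Triton X-100) in acetate buffer pH 5.5 with DTT. 1.5 nM enzyme and compound were pre-mixed 15 min, then 2 uM Z-FR-AMC substrate added; reaction progress from fluorescence change between first and third reads (60 s).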
NS1 function inh = inhibitors of influenza NS1 protein function | Potency, µM (top dose mostly 46.1 µM), without a hit: at the top dose activity, positive = more growth | 270,000 tested, 0.4% active | S. cerevisiae slowed by influenza A NS1, growth recovery by OD600; also: actives are rising curves; nearly all actives have a fitted effect of over 50% in size
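A cell-based growth assay was used: compounds that relieve NS1-induced slow growth of budding yeast raise OD600. Assay medium was yeast nitrogen base with ammonium sulphate and -URA supplement, pH 6.0, with 2% galactose.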
Lassa entry inh = inhibitors of Lassa virus binding or cell entry; Lassa virus pseudotype entry inhibition, cell reporter; control for the full effect not named in the record; Potency, µM (top dose mostly 37.9 µM), for the others: at the top dose activity change, negative = inhibition, most hits filed as inhibitors; 300,000 tested, 1.2% active; active means well fitted inhibition curve with a large enough effect; inconclusive means small, poorly fitted or top-dose-only effect, or effect the other way; inactive means flat fitted curve, though single readings scatter; tested in HEK293 cells; also: % is scaled to controls: 0 for no effect and ±100 for the full control effect; nearly all actives have a fitted effect of over 50% in size; luciferase read-out
MARV entry inh = Marburg virus entry inhibition; 300,000 tested, 1.8% active; Marburg virus pseudotyped entry inhibition, cell reporter; control for the full effect not named in the record; about a third of the inactives were read at about 46 µM; Potency, µM (doses to about 37.8 µM), without a hit: at the top dose activity change, negative = inhibition, usual class: inhibitors; AID 540276; active = well fitted inhibition curve with a large enough effect; inconclusive = small, poorly fitted or top-dose-only effect, or effect the other way; inactive = flat fitted curve, though single readings scatter; tested in HEK293 cells; about a fifth of its hits are not listed in these tables; also: % is scaled to controls: 0 for no effect and ±100 for the full control effect; luciferase read-out
RE007 growth inh = less growth of the S. pombe RE007 Vpr strain; S. pombe RE007 Vpr strain, BacTiter-Glo ATP luminescence, 24 h; control for the full effect not named in the record; Potency, µM (doses to about 92.2 µM), for inactives: at the top dose activity change, negative = less growth; 360,000 tested, 0.21% active; AID 651644; active = well fitted falling curve with a large enough effect; inconclusive = small, poorly fitted or top-dose-only effect; inactive = no such curve, though single readings can be large or run the other way;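 also: % is scaled to controls: 0 for no effect and ±100 for the full control effect; nearly all actives have a fitted effect of over 50% in size; the assay follows cell death caused by Vpr and the record does not say whether a fall means rescue or toxicity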
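Fission yeast strain RE007, carrying one chromosomally integrated HIV-1 vpr copy, was seeded at OD 0.01 in PMG+AL medium with 23 nL pinned compound. After 24 h at 30 °C and 99% humidity, viability was read by BacTiter-Glo luminescence.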
SARS PLP yeast = blocks SARS-CoV papain-like protease in a yeast assay. S. cerevisiae expressing SARS-CoV PLpro, growth rescue; control for the full effect not named in the record. Potency, µM (top dose mostly 32.9 µM), for the others: top-dose activity, positive = growth rescue. 330,000 tested, 0.19% active. AID 485353; also: 0% is about no effect; nearly all actives have a fitted effect of over 55% in size; growth read by luminescence after 48 h
* marks the source's active call; other numbers are inactive results; ? = inconclusive; / = not tested or not shown; & = joins results of further samples; [ ] = remark or other dose. Unless noted, calls follow the shape of the dose curve; as a rule, active means well fitted rising curve with a large enough effect; inconclusive means small, poorly fitted or top-dose-only effect; inactive means no such curve, though single readings can be large or run the other way. Potency is read from the fitted curve at half-maximal effect.

SMILES	Cruzain inh Det	StopGo reporter	Cruzain inh noDet	NS1 function inh	Lassa entry inh	MARV entry inh	RE007 growth inh	SARS PLP yeast
N#Cc1ccc(S(=O)(=O)N2CCCN(c3nc4ccc(Cl)cc4s3)CC2)cc1	/	?	/	1%	4%	?	-13%	0%
O=C(Cn1cc(C(=O)c2ccncc2)c(=O)c2cc(F)ccc21)Nc1ccc(Cl)cc1	-10%	-14%	-22%	/	5%[46.1 µM]	/	/	/
COc1ccc(-n2c(Cc3cccn3C)nnc2SCC(=O)NCc2ccccc2Cl)cc1	-7.3%	-7%	-8%	-8%	-10%	-36%&-36%	2%	-2%
Cc1ccc(-n2c(-c3cccc(C)c3)n[nH]c2=S)cc1	0.3%	1%	-8%	2%	-21%	2%	2%	?
CCOC(=O)N1CCN(C(=O)CSc2ccc3nnc(CCNC(=O)c4ccc(OC)cc4)n3n2)CC1	/	-4%	/	/	?	23%[46.1 µM]	9%	4%
Cc1ccc(NC(=O)c2nc(C)n(-c3ccc([N+](=O)[O-])cc3)n2)cc1	0.5%	-29%	-4%	10%	11%	25%	-2%	-5%
COc1ccc(CC(=O)NC2CC(=O)N(c3ccc4c(c3)OCCO4)C2)cc1 (stereo unspecified)	-1.6%	-18%	-5%	/	0%[46.1 µM]	/	/	/
O=C(CCOc1ccccc1)N1CCN(S(=O)(=O)c2cccs2)CC1	0.1%	-10%	-8%	-3%	8%	-20%	2%	-12%
C=CCn1cc(/C=N/NC(=O)COc2cccc3cccnc23)c2ccccc21	-4.6%	12%	?	2%	-24%	?	-7%	3%
O=C(CNC(=O)c1ccccc1)NCC(O)c1ccc([N+](=O)[O-])cc1 (stereo unspecified)	/	18%	/	-12%	-12%	5%	2%	-3%
Cn1cc(C(=O)C(=O)NCCc2ccccc2)c2ccccc21	/	27%	/	-1%	9%[46.1 µM]	-1%[46.1 µM]	-11%	3%
O=C(COC(=O)/C=C/c1cccc(C(F)(F)F)c1)NCCN1C(=O)CSC1=O	/	-27%	/	/	?	?	18%	1%
O=C(c1ccco1)N1CCN(C(=O)C2CCN(S(=O)(=O)c3cnc[nH]3)CC2)CC1	2.3%	13%	9%	0%	-14%	-9%	3%	6%
COc1cccc(OCc2cc(C(=O)N(C)Cc3nccn3C)no2)c1	/	70%[activator]	/	2%	/	/	-11%	-3%
COc1ccc2cc(/C=N/NC(=O)CN(c3ccccc3C)S(=O)(=O)c3ccccc3)c(Cl)nc2c1	?	-9%	9%	13%	12%	?	1%	4%
c1ccc(C2CCC3(CC2)Oc2ccccc2C2CC(c4cccnc4)=NN23)cc1 (stereo unspecified)	-10%	/	-23%	-15%	11%	-4%	/	-41%
CC1(C)CC(=O)C(N=Nc2ccc(C(F)(F)F)cc2[N+](=O)[O-])=C(O)C1	/	-17%	/	-4%	-9%	-3%[14.2 µM]	-11%	-4%
CC(Oc1cc2oc(=O)c3c(c2cc1Cl)CCC3)C(=O)NCCCn1ccnc1 (stereo unspecified)	/	-17%	/	4%	/	/	5%	-1%
Cc1cnn(-c2nc(-c3cccs3)cc(C(F)(F)F)n2)c1	-13%	?	26%	-37%	7%	1%	2%	-7%
O=C(CCS(=O)(=O)c1ccccc1)Nc1nc(-c2ccc(F)cc2)cs1	/	?	/	7%	2%	?	-7%	2%
CC(C)CN1CCN(Cc2ccc(C(F)(F)F)cc2)CC1CCO (stereo unspecified)	/	23%	/	0%	?	-11%	-14%	0%
O=C(O)[C@@H]1CC(O)CN1C(=O)CCc1c[nH]c2ccccc12 (stereo partly specified)	/	9%	/	-7%	-18%[46.1 µM]	10%[46.1 µM]	-5%	-2%
CC1CCN(S(=O)(=O)c2ccc3c(ccn3CC(=O)NCc3ccccc3F)c2)CC1	-8.6%	5%	-4%	/	11%[46.1 µM]	/	/	/
COc1cc(Nc2ccc(C)cc2)c([N+](=O)[O-])nc1[N+](=O)[O-]	-11%	?	-7%	6%	?	?	-8%	-20%
CCC(c1nnc(SCC(=O)NCCc2ccc(OC)c(OC)c2)n1Cc1ccccc1)N(C)C (stereo unspecified)	/	-13%	/	-3%	/	/	4%	0%
COCC(C)NC(=S)N1CCN(c2ccccc2Cl)CC1 (stereo unspecified)	/	-13%	/	-6%	/	/	-18%	-4%
CCOC(=O)CN1C(=O)C(O)(CC(=O)c2ccccn2)c2ccccc21 (stereo unspecified)	5.7%	-10%	2%	-90%	/	/	-4%	-2%
COc1ccc(C2CC(c3cccs3)=NN2C(=O)CSc2nnnn2C)cc1OC (stereo unspecified)	/	-1%	/	-10%	/	/	-7%	0%
O=c1[nH]nnc2sc3c(c12)CCCC3	-6.2%	-7%	-8%	-7%	-7%	4%	-18%	-13%
COc1cccc(CN2CCN(c3ncccn3)CC2)c1OC	/	-8%	/	-12%	/	/	14%	3%
CN(C)c1ccc(NC(=O)c2ccc(Cn3cc([N+](=O)[O-])cn3)cc2)cc1	/	5%	/	/	-18%[46.1 µM]	-19%[46.1 µM]	5%	-2%
CCCCN(CCCC)S(=O)(=O)c1ccc(NC(=O)c2ccc([N+](=O)[O-])cc2Cl)cc1	-8.0%	?	-6%	6%	?	?	-16%	-9%
COc1ccc(CCNC(=O)C2CC(c3c(Cl)cccc3Cl)=NO2)cc1 (stereo unspecified)	-3.4%	3%	0%	-12%	/	/	-20%	-3%
Cc1cccc(C(=O)Nc2ccc3nc(SCC(=O)N4CCc5ccccc54)sc3c2)c1	-0.6%	-13%	?	/	1%[46.1 µM]	3%[46.1 µM]	/	/
Cc1cc(C)nc(-n2nc(C)c(C3(O)C(=O)Nc4ccccc43)c2N)n1 (stereo unspecified)	1.0%	/	-7%	-10%	6%	10%	10%	1%
CCOC(=O)c1c(N)sc(C(=O)OC)c1C	/	40%[activator]	/	-8%	/	/	-17%	-2%
Cc1ccccc1C(=O)NCCn1cc(SCC(=O)NCC2CCCO2)c2ccccc21 (stereo unspecified)	/	-24%	/	6%	1%	-2%	2%	-3%
Cn1nc(-c2ccccc2)c(CO)c1Oc1ccc(F)cc1	/	-23%	/	/	-5%	?	11%	-2%
CC(C)c1ccc(CNCc2ccccc2)cc1	6.9%	/	-4%	-29%	13%	18µM*	9%	-4%
N#Cc1c(N)nc2c(c1-c1cccs1)CCCC2	0.8%	-6%	-20%	-3%	/	/	-3%	19%
CCc1ccccc1Nc1ncnc2ccccc12	/	-9%	/	3%	?	-25%[46.1 µM]	8%	1%
CCCn1cc(S(=O)(=O)c2ccccc2)c(=O)c2cc(CC)ccc21	/	2%	/	-4%	?	-1%[46.1 µM]	10%	-1%
COc1ccc(-c2noc(CCC(=O)NCc3ccco3)n2)cc1	/	71%[activator]	/	-5%	/	/	6%	0%
COc1ccc(/C=N/NC(=O)c2ccc(Cl)cc2)cc1Cn1cc(Cl)cn1	-0.6%	-25%	?	-1%	-15%	?	16%	21%
CCn1cc(C(=O)O)c(=O)c2cnc(N3CCN(C(=S)NC(=O)c4ccc(Cl)cc4)CC3)nc21	/	-23%	/	-3%	/	/	-4%	-1%
COc1ccccc1N(CC(=O)NCCSCc1ccccc1)S(C)(=O)=O	-1.8%	-8%&0%	8%	-5%	0%[46.1 µM]	-1%[46.1 µM]	-8%	1%
CCCn1nnnc1SCC(=O)N1CCOCC1	4.3%	20%	-1%	-4%	3%	17%	26%	5%
COc1ccc(/C=C/C(=O)Nc2ccc(C(N)=O)cc2)cc1OC	/	4%	/	3%	-3%	-1%[46.1 µM]	-5%	1%
Cc1cc(C)n2nc(C(=O)OCCOc3ccc(Br)cc3)nc2n1	1.9%	14%	13%	-41%	18%	1%	0%	-5%
COC(=O)c1cc(N2CCN(C)CC2)nc2ccccc12	/	7%	/	/	15%[46.1 µM]	-23%[46.1 µM]	2%	1%
COc1cc(CNC2CCCC2)c(Br)cc1OC1CCCC1	/	0%	/	0%	/	?	1%	14%
O=C(COC(=O)c1ccco1)NC1CCCCC1	2.3%	48%[activator]	2%	-3%	-3%	?	8%	0%
COc1ccc(CCNc2oc(COc3ccc(Cl)cc3)nc2C#N)cc1OC	-9.8%	32µM*	27%	/	-17%[46.1 µM]	?	/	/
Cc1nc2c(C#N)cnn2c2c1CCN2CC1CCCO1 (stereo unspecified)	/	-19%	/	-2%	-3%[46.1 µM]	-18%[46.1 µM]	1%	0%
Cn1c(/C=C/c2ccc(Br)cc2)c([N+](=O)[O-])c(=O)n(C)c1=O	/	16µM*	/	-6%	?	?	-5%	-5%
CC1CCC(NC(=O)CCN2C(=O)C3C4C=CC(C4)C3C2=O)CC1 (stereo unspecified)	/	-4%	/	-7%	?	7%[46.1 µM]	7%	4%
CCOC(=O)C1CCCN(CC(=O)NC2CC2)C1 (stereo unspecified)	3.2%	11%	-4%	3%	13%[14.3 µM]	21%	3%	-2%
CCOCc1nnc(NC(=O)c2cc(OC)cc(OC)c2)s1	/	-2%	/	-1%	/	/	0%	-2%
O=C(CCCn1c(=O)[nH]c2ccccc2c1=O)N1CCN(c2ccccc2)CC1	3.8%	-12%	-13%	/	?	/	/	/
CCOC(=O)c1sc(NC(=O)CCc2ccc(OC)cc2)nc1C	/	1%	/	3%	/	-4%[46.1 µM]	11%	2%
Continued:
SMILES	Cruzain inh Det	StopGo reporter	Cruzain inh noDet	NS1 function inh	Lassa entry inh	MARV entry inh	RE007 growth inh	SARS PLP yeast
Cc1cnc(C(=O)Nc2nnc(SCc3c(Cl)cccc3Cl)s2)cn1	-3.5%	-13%	-26%	-7%	1%	?	-7%	7%
Cc1ccc(S(=O)(=O)N2CCC(C(N)=O)CC2)cc1[N+](=O)[O-]	/	32%[activator]	/	-33%	12%	3%	10%	-3%
O=C(COc1ccc(S(=O)(=O)N2CCOCC2)cc1Cl)NCC1CCCO1 (stereo unspecified)	/	-11%	/	1%	?	1%[46.1 µM]	-5%	1%
Cc1c(C(=O)N2CCOCC2)oc2c1-c1nn(CC(=O)NCc3cccc(F)c3)cc1CC2	0.2%	10%	?	/	3%[46.1 µM]	/	/	/
CNS(=O)(=O)c1cccc(C(=O)OCC(=O)NCCCc2ccccc2)c1	/	0%	/	-5%	/	/	-4%	2%
